# Vaccinia stage – blocks a specific stage of Vaccinia orthopoxvirus infection; Vaccinia-infected cells, mCherry/Venus stage reporter fluorescence; active compounds read low; some inactives read as strong as hits; activity change (mCherry), % (concentration not given with the values); hit rate 0.01% among 89,000; AID 1053133;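 active = mCherry past -33% and 40 or more points under the early reporter, replicates agreeing; inconclusive = past -33% without that gap or agreement; tested in A549 cells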;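 also: scaled between vehicle wells and reference inhibitor wells; 23 nL library stock went into each well; one replicate is shown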
# Vaccinia stage Venus – recorded beside Vaccinia stage, whose call it bears; activity change (Venus), %; measured here: Venus reporter, other viral stage;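 negative = less Venus signal; first of two replicates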
# Numbers without * were called inactive; u = inconclusive; x = not tested or not shown; & = joins results of further samples. A portion of the library; count on the stated rates, not on these rows.
SMILES,Vaccinia stage,Vaccinia stage Venus
CC(C)[C@H]1COCc2cn(nn2)CCCC(=O)N1,17,18
COc1ccc(-c2ccc([C@@H]3[C@H]4CN(C(=O)Cc5ccccc5)CCCCN4[C@H]3CO)cc2)cc1,u,x
O=C(O)C[C@H]1C[C@H]2c3cc(NS(=O)(=O)c4ccccc4)ccc3O[C@H]2[C@H](CO)O1,8,6
COCCNC(=O)C[C@@H]1CC[C@@H]2[C@H](COC[C@H](O)CN2S(=O)(=O)c2ccccc2F)O1,2,13
CN(C)C(=O)C[C@@H]1CC[C@H]2[C@@H](COC[C@H](O)CN2C(=O)C2CCCC2)O1,1,1
C[C@@H]1CN([C@H](C)CO)S(=O)(=O)c2ccc(C3=CCCC3)cc2O[C@H]1CN(C)Cc1cccc(C(=O)O)c1,-18,-10
Cn1cnc(S(=O)(=O)N2CCCCN3[C@@H](CO)[C@H](c4ccc(-c5ccccc5F)cc4)[C@@H]3C2)c1,12,0
CCNC(=O)Nc1ccc2c(c1)C(=O)N(C)[C@@H]1CC[C@@H](CC(=O)NCCOC)O[C@H]1CO2,4,5
C[C@@H]1CN([C@H](C)CO)C(=O)c2cc(-c3cccc(C#N)c3)cnc2O[C@@H]1CN(C)Cc1ccncc1,8,5
C[C@@H]1CN([C@@H](C)CO)S(=O)(=O)c2ccc(C#CC3CC3)cc2O[C@H]1CN(C)C(=O)c1ccccn1,-12,-10
CCCC#Cc1ccc2c(c1)O[C@@H](CN(C)C(=O)CN(C)C)[C@@H](C)CN([C@H](C)CO)S2(=O)=O,-3,-3
CC(=O)N1[C@H](CO)[C@@H](c2ccccc2)[C@H]1CN(C(=O)NC(C)C)C1CCCC1,13,13
C[C@@H]1CN([C@H](C)CO)C(=O)c2cccc(NS(=O)(=O)c3ccccc3)c2O[C@H]1CN(C)Cc1ccc(Oc2ccccc2)cc1,-23,-22
COC(=O)C[C@@H]1C[C@H]2c3cc(NS(=O)(=O)c4cccc(OC)c4)ccc3O[C@H]2[C@@H](CO)O1,8,1
C[C@H](CO)N1C[C@H](C)[C@H](CN(C)Cc2cccnc2)Oc2cc(-c3ccccc3)ccc2S1(=O)=O,-21,-14
Cc1noc(C)c1NC(=O)Nc1ccc2c(c1)C(=O)N([C@H](C)CO)C[C@H](C)[C@@H](CN(C)Cc1ccc(-c3ccccc3)cc1)O2,4,-1
C[C@H](CO)N1C[C@H](C)[C@@H](CN(C)Cc2ccccc2)Oc2ccc(NS(=O)(=O)c3ccc(F)cc3)cc2C1=O,14,11
O=C(C[C@H]1C=C[C@H](NC(=O)C2CC2)[C@@H](CO)O1)NCCCN1CCOCC1,4,8
O=C(Nc1ccc(F)cc1)N[C@@H]1C[C@@H]2O[C@H](CO)CC[C@@H]2O[C@@H]1CCc1ccc(-c2ccccc2)cc1,-10,-12
CCCNC(=O)N1C[C@H](C)[C@H](OC)CN(C)C(=O)c2cc(NS(=O)(=O)CC)ccc2OC[C@@H]1C,8,7
O=C(C[C@@H]1CC[C@H]2[C@@H](COC[C@H](O)CN2C(=O)c2ccncc2)O1)NCc1ccc(-c2ccccc2)cc1,10,6
COc1ccc(S(=O)(=O)Nc2ccc3c(c2)CC(=O)N([C@@H](C)CO)C[C@H](C)[C@@H](CN(C)S(=O)(=O)c2cn(C)cn2)O3)cc1,0,-2
CNC[C@H]1Oc2c(NC(=O)c3cc(C)nn3C)cccc2C(=O)N([C@H](C)CO)C[C@@H]1C,14,10
COc1ccc(S(=O)(=O)Nc2ccc3c(c2)C(=O)N([C@@H](C)CO)C[C@H](C)[C@H](CN(C)C(=O)Nc2cccc4ccccc24)OCCCC[C@@H](C)O3)cc1,5,5
CC(C)NC(=O)N1[C@H](CN(C)C(=O)c2ccccc2)[C@@H](c2ccccc2)[C@@H]1CO,8,3
CC(=O)N[C@@H]1CC[C@@H](CC(=O)NCc2ccc(Cl)cc2)O[C@@H]1CO,2,-6
C[C@@H]1CCCCO[C@H](CN(C)C(=O)C2CCCCC2)[C@H](C)CN([C@@H](C)CO)C(=O)c2cc(NC(=O)NC3CCCCC3)ccc2O1,u,x
O=C(N[C@@H]1CC[C@@H](CCNS(=O)(=O)c2cccc(Cl)c2)O[C@@H]1CO)c1ccc(F)cc1,11,8
CC(=O)N1[C@@H](CO)[C@@H](c2ccc(-c3ccc(C#N)cc3)cc2)C12CN(C(=O)C1CC1)C2,7,7
Cc1ccc(S(=O)(=O)N[C@@H]2C=C[C@H](CC(=O)O)O[C@H]2CO)cc1,20,19
O=C(NC1CCC1)[C@H]1[C@H](CO)[C@H]2Cn3c(ccc(-c4ccncc4)c3=O)[C@H]2N1CCc1ccccc1,0,-9
C/C=C/c1ccc2c(c1)[C@H]1[C@H](CCN1S(=O)(=O)c1ccccc1C)[C@@H](CO)N2,-1,19
C[C@@H]1CN([C@@H](C)CO)C(=O)c2cc(NC(=O)Nc3ccccc3)ccc2O[C@H]1CN(C)C(=O)Nc1ccc(C(F)(F)F)cc1,6,1
C[C@@H]1CN([C@@H](C)CO)C(=O)CCCn2nncc2CO[C@H]1CN(C)Cc1ccncc1,30&2,25&-2
CCCC(=O)Nc1ccc2c(c1)C(=O)N(C)C[C@H](OC)[C@H](C)CN(C(=O)CN(C)C)[C@@H](C)CO2,-10,-5
C[C@@H]1CN([C@H](C)CO)C(=O)c2cc(NS(=O)(=O)c3ccc(F)cc3)ccc2O[C@H]1CN(C)CC1CCCCC1,10,8
Cc1ccc(S(=O)(=O)Nc2ccc3c(c2)C(=O)N([C@H](C)CO)C[C@@H](C)[C@@H](CN(C)S(=O)(=O)c2ccccc2)O3)cc1,2,2
CN1C(=O)c2cc(NC(=O)Cc3cccs3)ccc2OC[C@H]2O[C@@H](CC(=O)NCCCN3CCOCC3)CC[C@H]21,-1,1
Cc1ccccc1S(=O)(=O)NCC[C@@H]1CC[C@H](NC(=O)C2CCCC2)[C@@H](CO)O1,-3,7
C[C@H]1CN([C@@H](C)CO)C(=O)CCCn2nncc2CO[C@@H]1CN(C)C(=O)Nc1cccc(Oc2ccccn2)c1,16,13
O=C(C[C@@H]1C=C[C@H](NC(=O)c2ccccc2)[C@@H](CO)O1)Nc1ccc(-c2ccccc2)cc1,-13,-16
COc1ccc2c3c(n(C)c2c1)[C@H](CO)N(Cc1ccccc1)CC31CCN(C(=O)Nc2cccc(F)c2)CC1,-14,-10
C[C@@H]1CN([C@H](C)CO)C(=O)CCCn2cc(nn2)CO[C@@H]1CN(C)S(C)(=O)=O,3,7
C[C@H]1CN([C@@H](C)CO)C(=O)c2cc(NC(=O)Nc3ccccc3)ccc2O[C@H]1CN(C)S(C)(=O)=O,8,1
O=S(=O)(N[C@H]1CC[C@H](CCn2cc(C3CC3)nn2)O[C@@H]1CO)c1ccc(F)cc1,15,6

# Five structures already listed, ordered by number of heavy atoms, low to high:
SMILES,Vaccinia stage,Vaccinia stage Venus
C[C@@H]1CN([C@@H](C)CO)C(=O)CCCn2nncc2CO[C@H]1CN(C)Cc1ccncc1,30&2,25&-2
O=C(C[C@@H]1C=C[C@H](NC(=O)c2ccccc2)[C@@H](CO)O1)Nc1ccc(-c2ccccc2)cc1,-13,-16
CCCC(=O)Nc1ccc2c(c1)C(=O)N(C)C[C@H](OC)[C@H](C)CN(C(=O)CN(C)C)[C@@H](C)CO2,-10,-5
C[C@@H]1CN([C@H](C)CO)C(=O)c2cc(NS(=O)(=O)c3ccc(F)cc3)ccc2O[C@H]1CN(C)CC1CCCCC1,10,8
COc1ccc2c3c(n(C)c2c1)[C@H](CO)N(Cc1ccccc1)CC31CCN(C(=O)Nc2cccc(F)c2)CC1,-14,-10

# Following part:
SMILES,Vaccinia stage,Vaccinia stage Venus
CNC[C@H]1Oc2ncc(C#CC3(O)CCCC3)cc2C(=O)N([C@H](C)CO)C[C@H]1C,1,4
COc1ccccc1S(=O)(=O)N1CC[C@@H]2[C@H](CO)Nc3ccc(-c4ccc(C#N)cc4)cc3[C@@H]21,u,x
O=C(Cc1ccccn1)N[C@H]1CC[C@H](CCn2cc(-c3ccc(F)cc3)nn2)O[C@@H]1CO,-2,-4
C[C@@H]1CCCCO[C@H](CN(C)C(=O)Nc2ccc(C(F)(F)F)cc2)[C@H](C)CN([C@@H](C)CO)C(=O)c2cc(NS(C)(=O)=O)ccc2O1,u,x
CC(=O)N1[C@@H]2c3ccc(C4=CCCC4)c(=O)n3C[C@H]1[C@H](CO)[C@H]2C(=O)NCc1ccccc1,8,5
CCCNC(=O)C[C@H]1C[C@H]2c3cc(NS(=O)(=O)c4cccc(OC)c4)ccc3O[C@H]2[C@@H](CO)O1,13,8
OC[C@H]1[C@H](c2ccc(-c3ccc(F)cc3)cc2)[C@@H]2CN(Cc3cccnc3)CCCCN12,-10,-7
C[C@@H]1CN([C@@H](C)CO)C(=O)c2cc(C#CC3(O)CCCC3)cnc2O[C@H]1CN(C)C(=O)Cc1cccnc1,20,13
COc1cccc(NC(=O)N(C)C[C@H]2Oc3ncc(/C=C/c4ccccc4)cc3C(=O)N([C@H](C)CO)C[C@@H]2C)c1,u,x
CN(C)CCCNC(=O)C[C@@H]1CC[C@@H]2[C@@H](COc3ccc(NC(=O)NC4CCCC4)cc3C(=O)N2C)O1,5,-4
COc1ccccc1NC(=O)N[C@@H]1CC[C@H](CCNC(=O)Cc2ccccn2)O[C@@H]1CO,-3,0
CN1C(=O)c2cc(NC(=O)c3ccc(F)cc3)ccc2OC[C@@H]2O[C@H](CC(=O)O)CC[C@H]21,6,6
O=C(C1CC1)N1CCCCN2[C@H](CO)[C@H](c3ccc(C#CC4CC4)cc3)[C@H]2C1,-31,-9
C[C@@H]1CN([C@H](C)CO)C(=O)c2cc(NS(=O)(=O)c3ccc(F)cc3)ccc2O[C@@H](C)CCCCO[C@@H]1CN(C)C(=O)c1ccncc1,28,10
CC(C)NC(=O)N[C@@H]1CC[C@H](CCNC(=O)C2CC2)O[C@@H]1CO,2,8

# Given with values under each structure: part of the list above
# Fields – Vaccinia stage	Vaccinia stage Venus
> CN(C)C(=O)C[C@@H]1CC[C@H]2[C@@H](COC[C@H](O)CN2C(=O)C2CCCC2)O1
  1	1
> C[C@@H]1CN([C@H](C)CO)S(=O)(=O)c2ccc(C3=CCCC3)cc2O[C@H]1CN(C)Cc1cccc(C(=O)O)c1
  -18	-10
> Cn1cnc(S(=O)(=O)N2CCCCN3[C@@H](CO)[C@H](c4ccc(-c5ccccc5F)cc4)[C@@H]3C2)c1
  12	0

# Other results follow.
SMILES,Vaccinia stage,Vaccinia stage Venus
C[C@@H](NC(=O)C[C@H]1CC[C@H]2[C@@H](COC[C@@H](O)CN2C(=O)Nc2cccc(F)c2)O1)c1ccccc1,-9,-7
C[C@@H]1CCCCO[C@@H](CN(C)C(=O)Nc2ccccc2)[C@H](C)CN([C@H](C)CO)C(=O)c2cc(NC(=O)c3ccccc3)ccc2O1,-29,-26
O=C(CN1CCOCC1)N1CC[C@H]2[C@H](CO)Nc3ccc(-c4ccccc4)cc3[C@H]21,3,0
CN(C)CC(=O)N1[C@@H](C#N)[C@@H](c2ccc(-c3cccc(C(=O)N(C)C)c3)cc2)[C@@H]1CO,13,8
N#C[C@@H]1[C@@H](c2ccccc2-c2ccc(F)cc2)[C@H](CO)N1C(=O)NC1CCCC1,-11,0
C#CCNC(=O)C1=C[C@H](C2CC2)[C@@H](CCCO)[C@H](OCC)O1,17,17
O=C(c1ccncc1)N1C[C@@H]2N[C@H](C1)C2c1ccc(-c2cccnc2)cc1 (some centres undefined),8,4
CC(C)NC(=O)N(C)C[C@H]1Oc2c(NS(=O)(=O)c3ccc(F)cc3)cccc2C(=O)N([C@H](C)CO)C[C@H]1C,11,0
CCC(=O)Nc1ccc2c(c1)C(=O)N(C)C[C@H](OC)[C@H](C)CN(C(=O)C1CC1)[C@@H](C)CO2,-8,-2
COC(=O)[C@]1(CCS(=O)(=O)c2ccccc2)N=C(c2ccc(OCCCO)cc2)O[C@@H]1c1ccccc1CN=[N+]=[N-],u,x
COc1ccccc1NC(=O)N1CCCCN2[C@H](C1)[C@@H](c1ccc(C#CC3CC3)cc1)[C@@H]2CO,u,x
Cc1noc(C)c1S(=O)(=O)Nc1ccc2c(c1)C(=O)N([C@@H](C)CO)C[C@H](C)[C@@H](CN(C)C(=O)NC(C)C)OCCCC[C@H](C)O2,12,4
C[C@H]1CN([C@@H](C)CO)S(=O)(=O)c2ccc(C3=CCCCC3)cc2O[C@H]1CN(C)C(=O)c1ccccc1,u,x
COc1ccc(NC(=O)Nc2ccc3c(c2)C(=O)N([C@H](C)CO)C[C@@H](C)[C@@H](CN(C)CC2CCCCC2)OCCCC[C@H](C)O3)cc1,-34,-34
CNC(=O)C[C@@H]1CC[C@H]2[C@H](COc3ccc(NC(=O)c4ccccc4Cl)cc3C(=O)N2C)O1,8,-1
C[C@H]1CN([C@@H](C)CO)C(=O)c2cc(-c3cccc(F)c3)cnc2O[C@@H]1CN(C)C(=O)C1CCOCC1,13,10
C[C@@H]1CN([C@@H](C)CO)C(=O)c2cc(C#CCC3CCCC3)cnc2O[C@H]1CN(C)S(=O)(=O)c1cccs1,-8,-9
C[C@H]1CN([C@@H](C)CO)S(=O)(=O)c2ccc(C#CC3CC3)cc2O[C@H]1CN(C)C(=O)C1CCC1,-16,-9
CO[C@H]1CN(C)C(=O)c2ccc(NS(C)(=O)=O)cc2OC[C@H](C)N(C(=O)CN(C)C)C[C@@H]1C,-1,-7
COc1ccc(NC(=O)Nc2ccc3c(c2)C(=O)N([C@@H](C)CO)C[C@H](C)[C@@H](CN(C)Cc2ccncc2)O3)cc1,3,-3
Cc1ccc(S(=O)(=O)Nc2ccc3c(c2)CC(=O)N([C@H](C)CO)C[C@H](C)[C@@H](CN(C)S(=O)(=O)c2ccc(C)cc2)O3)cc1,-31,-19
